# Screening results: PubChem, ICCB-Longwood Screening Facility, Harvard Medical School
# Ab BasE inh: BasE siderophore biosynthesis inhibition; 84,000 tested, 0.1% active; purified BasE, fluorescence polarization binding displacement; inhibition, % (concentration not given with the values); AID 485350;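 active = both replicates above 25% with normal brightness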;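 note: 0% = negative plate control signal and 100% = positive plate control signal; stock transfer was 100 nL into about 30 µL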
# LANA-nucl inh: LANA-nucleosome interaction inhibition; FITC-LANA1-23 / chicken nucleosome fluorescence polarization; stronger effect = lower value; z-score (concentration not given with the values); 51,000 tested, 0.3% active;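 active = both repeat wells score below -2 in polarization z-score versus plate sample wells, excluding overly bright wells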;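 note: 100 nL library stock added to about 30 µL; numbers are from one replicate; some results filed as inactive read as strong as hits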
#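 Test system: purified chicken nucleosomes with FITC-labelled LANA N-terminal peptide (1-23); Input: 240 nM purified chicken nucleosomes (480 nM peptide binding sites), final; Medium: TEN-BT buffer, pH 7.5; Timing: 10–45 min, room temperature; Technique: fluorescence polarization, 480 nm excitation, 535 nm parallel and perpendicular emission; Replication: duplicates.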
# * = called active by the depositor; x = not tested or not shown; & = joins results of further samples. Only part of the results is shown (hit frequency here may not be typical).
SMILES,Ab BasE inh,LANA-nucl inh
O=C(Nc1c(S(=O)(=O)c2ccccc2)c2nc3ccccc3nc2n1C1CCCCC1)c1ccco1,-0.6,x
COc1ccc(C2CC(=O)C(C=NCC(C)C)=C(O)C2)cc1 (stereo unspecified),-1.8,-0.13
CN1CCN(CC(=O)N2CCCC2=O)CC1,-1.1,-0.3
CN1CCN(C(=O)/C=C/c2ccccc2)CC1,-0.2,-0.83
Cc1ccc2c(cnn2C(=O)CCC(=O)O)c1,0.4,-0.038
CCn1c(Cc2ccccc2)nnc1SCC(=O)NC(=O)NCc1ccccc1,-2.1,x
N#Cc1ccccc1OCc1cc(-c2ccccc2)on1,-2.8,x
O=C(O)c1cncn1-c1ccc(F)cc1,0.2,x
Cc1cc(NC(=O)c2ccccc2)n(-c2nc3ccccc3[nH]2)n1,2.0,x
Cc1noc(C)c1Cc1ccc(C(=O)O)o1,-0.1,-0.31
O=C1Nc2ccccc2Oc2ncccc21,4.5,1.2
Cc1nc(Cc2nnc(SCC(=O)NC(C)(C)C)o2)cs1,1.8,x
CN1C=CC=C/C1=C1\N=C(c2ccccc2)OC1=O,-4.5,-0.54
COc1cc2nc(N3CCN(C(=O)c4ccco4)CC3)nc(N)c2cc1OC,0.7&-0.4&-0.3,-0.33&0.44&0.21&1.5&0.33&-0.49
O=C1OCC(c2cccs2)=C1c1cccs1,-0.6,x
CCn1c(SC)nnc1C1CCCN1CC(=O)NCc1cccs1 (stereo unspecified),1.3,-1.3
O=C(c1cccc(F)c1)N1CCN(C(=O)c2cnn3cc(Br)cnc23)CC1,0.0,-1.2
CCc1ccc(Nc2ncnc3c2nc2n3CCCCC2)cc1,-2.1,0.45
Cc1c(Cl)cccc1NC(=O)NCc1cccnc1,1.6,-1.4
COCCNC(=O)c1ccc2c(c1)ncn2-c1ccccc1OC,1.9,-0.8
CCOc1ccc(OCC)c(NC(=O)CNS(=O)(=O)c2cccs2)c1,-1.2,0.26
CC1CCN(S(=O)(=O)c2ccc(S(=O)(=O)NCc3ccccc3)cc2)CC1,0.8,-0.59
S=C(NCC1CCCO1)N/N=C1\C2CN3CCN(C2)CC1(Cc1ccccc1)C3 (stereo unspecified),1.0,0.19
Cc1cc2cccc(C)c2nc1SCC(=O)O,0.8,-0.96
O=C1/C(=C\Nc2ccc(F)cc2)CCN1c1ccc(Cl)cc1,x,-0.52
N#Cc1cc2cc3c(cc2nc1SCC(=O)NC1CCCCC1)OCCO3,-3.1,-0.062
COc1cccc(C(=O)c2sc(NC(C)C)nc2N)c1,-1.5,0.61
CC(C)(C)C(=O)NC(=S)NC1CCSC1=O (stereo unspecified),-2.9,2.5
Cc1ccc(NC(=O)N2CCCn3c(SCc4ccc(F)cc4)nnc32)cc1,0.0,0.24
CC1(C)NC(=S)N(c2ccccc2)N1,-0.7&-0.6,-0.53

# At a glance, some entries already given:
SMILES,Ab BasE inh,LANA-nucl inh
O=C(c1cccc(F)c1)N1CCN(C(=O)c2cnn3cc(Br)cnc23)CC1,0.0,-1.2
CCc1ccc(Nc2ncnc3c2nc2n3CCCCC2)cc1,-2.1,0.45

# (next part)
SMILES,Ab BasE inh,LANA-nucl inh
Cc1ccn2cc(CSC(=S)N3CCOCC3)nc2c1,1.6,0.03
O=C(c1cc(=O)[nH]c2ccccc12)N1CCCc2ccccc21,0.4,x
CCOC(=O)Cc1csc(NC(=O)/C=C/c2cccs2)n1,2.0,x
C(=N\c1nncs1)/Nc1nncs1,0.7,-0.42
C/C(=N\N1C(=O)c2ccccc2C1=O)c1ccccc1O,6.4,-0.043
COC(=O)c1ccc(/C=C2/NC(=O)NC2=O)cc1,3.2,-0.15
Cc1cnc(C(=O)Nc2ccc(S(=O)(=O)NC3=NCCCCC3)cc2)cn1,-0.8,x
CNS(=O)(=O)c1cccc(S(=O)(=O)c2cccc(S(=O)(=O)NC)c2)c1,-0.6,x
COC(=O)c1sc(-c2ccc(C(C)(C)C)cc2)cc1NC(=O)COCC(=O)O,-2.4,x
O=C(C1CCN(S(=O)(=O)c2ccccc2)CC1)N1CCCCC1,-1.6,0.16
C=C1OC(C)(C)c2ccccc21,3.5,0.5
COC(=O)C1=C(Nc2ccccc2NC(=O)CCCC(=O)O)CSC1,-1.7,0.034
CO[C@H]1C=CO[C@@]2(C)Oc3c(C)c(O)c4c(O)c(c5c(c4c3C2=O)NC2(CCN(CC(C)C)CC2)N=5)=NC(=O)C(C)=CC=C[C@H](C)[C@H](O)[C@@H](C)[C@@H](O)[C@@H](C)[C@H](OC(C)=O)[C@@H]1C,x,-0.29
CCCc1cc(=O)[nH]c(SCc2ccc(C#N)cc2)n1,-0.3,-0.29
CCCCN1C(=O)S/C(=C\c2cc(C)n(C)c2C)C1=O,2.6,x
OCCNCCOc1ccc(I)cc1,1.1,x
O=C(O)COc1ccc2oc(=O)c3c(c2c1)CCC3,2.1,x
CN(C)c1ccc(Nc2nc(-c3cccnc3)nc3ccccc23)cc1,2.6,0.99
CC1(C)CN(c2cccc(-c3ccnc4ncnn34)c2)C1=O,x,0.61
CCNc1nc(NCC)n2c(=S)n(CN3CCOCC3)nc2n1,0.9,-0.73
O=C(CNc1cccc(C(F)(F)F)c1)NN1C(=O)NC2(CCCCC2)C1=O,-0.5,x
COc1cc(/C=C/C(=O)N2CCc3ccccc3C2)cc(OC)c1OC,-1.9,-0.11
CCC(=O)N1c2ccccc2NC2=C(C(=O)CC(C)(C)C2)C1c1ccccn1 (stereo unspecified),-1.6,0.94
O=C(NC1CCc2ccccc21)c1cn(-c2ccc(F)cc2)nn1 (stereo unspecified),-1.0,1.8
Clc1ccc(C2=CC(c3cccs3)n3c(nc4ccccc43)N2)cc1 (stereo unspecified),-0.6,-0.3
CSc1ccc(CN(C)CC(=O)NC2(C#N)CCCC2)cc1,-0.1,x
COc1ccc2c(c1)NC(c1cc(Cl)cc(Cl)c1O)c1cccn1-2 (stereo unspecified),2.8,0.082
CCN(CC(=O)Nc1ccccc1OC)C(=O)c1ccc(-n2cccn2)cc1,-1.7,x
CC12CN(C(=O)c3cccs3)CC(C)(CN(C(=O)c3cccs3)C1)C2=O,-1.4,0.57
O=C(O)/C=C\C(=O)c1ccc(O)cc1,x,-0.31
COC(=O)c1ccc(-c2nc(O)c3c4ccccc4c(=O)[nH]n23)cc1,0.6,x
CN1CCC(NC(=O)c2ccncc2)CC1,0.4,-1.2
COC(=O)c1cccc(NC(=O)COc2ccccc2)c1,0.6,x
c1csc(-c2nc3nonc3c3nc4ccccc4n23)c1,-5.4,1.5
Cc1cc2c(c(C)c1Cl)CN(Cc1ccc3c(c1)OCO3)CO2,-9.9,-0.85
O=C(Nc1cccc(-c2nc3ccccc3[nH]2)c1)C1CC(=O)N(Cc2ccco2)C1 (stereo unspecified),-3.5,x
O=C(OCC(=O)c1c[nH]c2ccccc12)c1ccc(-n2cnnn2)cc1,1.0,x
CCn1c2ccccc2c2cc(NC(=O)CCC3CCCCC3)ccc21,3.3,x
CCc1cc2c3c([nH]c2cc1S(=O)(=O)N1CCCCC1)CCCC3=O,1.8,-0.95
CCc1ccc(C(=O)COC(=O)c2nc(-c3ccccc3)oc2C)cc1,-1.2,x
CCn1c(-c2ccccc2)c[nH]c1=S,3.0,x
O=C(O)CCn1c(C(=O)O)cc2sccc21,0.2,0.28
NNC(=O)C(Sc1n[nH]c(=O)[nH]c1=O)c1ccccc1 (stereo unspecified),0.5,-0.85
CCN(C(=O)CSc1ncn[nH]1)c1ccccc1,1.8,x
C=CCn1c(N2CCCC2)nc2c1c(=O)[nH]c(=O)n2C,1.7,-0.044

# Reprinted at random: 7 compounds from above, in no set order.
SMILES,Ab BasE inh,LANA-nucl inh
CCN(C(=O)CSc1ncn[nH]1)c1ccccc1,1.8,x
CCn1c(-c2ccccc2)c[nH]c1=S,3.0,x
CCc1ccc(C(=O)COC(=O)c2nc(-c3ccccc3)oc2C)cc1,-1.2,x
C=CCn1c(N2CCCC2)nc2c1c(=O)[nH]c(=O)n2C,1.7,-0.044
O=C(O)CCn1c(C(=O)O)cc2sccc21,0.2,0.28
c1csc(-c2nc3nonc3c3nc4ccccc4n23)c1,-5.4,1.5
CN1CCC(NC(=O)c2ccncc2)CC1,0.4,-1.2

# (cont.)
SMILES,Ab BasE inh,LANA-nucl inh
C=CCn1c(SCC(=O)N2CC(C)CC(C)C2)nc2ccccc2c1=O (stereo unspecified),-0.2,x
CN(C(=O)COn1nnc2ccccc21)C1CCCCC1,0.7,x
CCOc1ccc(C(=S)N(C)C)cc1,-0.6,0.18
C=Cc1c(C)/c2[n-]/c1=C\c1[n-]c(c(CC)c1C)/C=c1\[n-]c3c(c1C)C(=O)C(C(=O)[O-])C=3c1[n-]c(c(C)c1CCC(=O)[O-])\C=2.[Cu].[Na+].[Na+] (stereo unspecified),18,0.55&-1.6
COC(=O)C1CC(O)CN1c1nc(-c2ccccc2)nc2ccccc12 (stereo unspecified),1.4,x
COc1ccc(C2NC(=O)Cc3cc(OC)c(OC)cc32)cc1 (stereo unspecified),0.3,-0.16
O=C1CSC(=Nc2cccc(C(=O)O)c2)N1,-0.9,0.18
O=C(OC1CCOC1=O)c1cccnc1Nc1cccc(C(F)(F)F)c1 (stereo unspecified),1.2,x
N#CC1=C(N)c2ccccc2CC12CCCCC2,-1.8,-0.0015
CCCNC(=O)c1ccc(N2C(=O)c3ccccc3C2=O)cc1,0.9,0.1
CCOc1cc(/C=C2\C(=O)Nc3ccc(Br)cc32)ccc1OCC(=O)O,0.4,x
O=C1C2C3C=CC(C3)C2C(=O)N1CCOCc1ccccc1 (stereo unspecified),1.4,-0.46
CCOC(=O)c1ccc(-c2ccc(/C=C3/C(=O)ON=C3C)o2)cc1,0.1,-1
COC(=O)C1=C(C)N(c2ccc(C)cc2)/C(=C/c2ccc(OC)cc2)C1=O,12,x
CN(CCNS(=O)(=O)c1ccc(-c2cc(C(F)(F)F)no2)s1)C1CCCCC1,-1.7,x
O=C1N(Cc2ccccc2)C(c2cccc(F)c2)C1(F)F (stereo unspecified),0.9,x
COC(=O)C1=CN(C(C)C)C=C(C(=O)OC)C1c1ccc2c(c1)OCO2,0.9,-1.5
CCOC(=O)c1ccc(N2C(=O)CC(NC(C)(C)C)C2=O)cc1 (stereo unspecified),-0.4,0.16
O=C(CNC(=O)c1ccccc1)NCC1COc2ccccc2O1 (stereo unspecified),-0.4,x
N#Cc1c(N)nc(Sc2ccc(Cl)cc2)c(C#N)c1-c1cccs1,0.2,0.27
Nc1nc2nc(N3CCOCC3)[nH]c2c(=O)[nH]1,-1.9,0.93
Cc1ccc(/C=C2/CC(C)C/C(=C\c3ccc(C)o3)C2=O)o1 (stereo unspecified),-10,2.7
Cc1ccc(-c2cc(C(F)(F)F)nn2-c2ccc(S(N)(=O)=O)cc2)cc1,-3.0,-0.33&0.34&0.56
CCC(C(=O)Nc1nn2c(-c3ccccc3)nnc2s1)c1ccccc1 (stereo unspecified),0.4,-1.7
CCN(CC(=O)NCc1ccc(F)cc1)C(=O)c1cc2ccccc2o1,-0.4,x
CCOC(=O)c1oc2ccccc2c1COC(=O)c1cccnc1SC,0.2,x
CC[n+]1c(C)sc2sc3ccccc3c21,-1.4,-0.14
CC1Cc2ccccc2N1C(=O)CN(C)CC(=O)Nc1ccc(OC(F)(F)F)cc1 (stereo unspecified),0.3,x
COc1cccc(NC(=S)N2CCCCC2)c1,-0.2,2.2
CC(C)(C)C(O)Cn1c(=N)n(CCN2CCCCC2)c2ccccc21 (stereo unspecified),-1.0,x

# Ordered by value in LANA-nucl inh (rising): three from the list above.
structure	LANA-nucl inh
CC[n+]1c(C)sc2sc3ccccc3c21	-0.14
CCOC(=O)c1ccc(N2C(=O)CC(NC(C)(C)C)C2=O)cc1 (stereo unspecified)	0.16
N#Cc1c(N)nc(Sc2ccc(Cl)cc2)c(C#N)c1-c1cccs1	0.27

# (more compounds)
SMILES,Ab BasE inh,LANA-nucl inh
CCN(CC)C(=O)c1sc(NC(=S)N2CCN(C(=O)c3ccco3)CC2)c(C(=O)OC)c1C,1.5,-0.41
CN(C)c1cccc(C(=O)OCc2cc(Cl)cc3c2OCOC3)c1,-3.1,x
Cc1ccc(NC(=O)CN2C(=O)C3(OCCCO3)c3ccccc32)cc1C,-1.8,0.042
Cc1nnc(SC2CCN(S(=O)(=O)c3cccc(C(F)(F)F)c3)CC2)s1,0.5,-0.67
COC(=O)CCNc1n[nH]c(=O)[nH]c1=O,-1.3,-0.31
C=CCc1ccccc1OCC(N)=O,1.8,-0.45
COc1ccc(/C=C2/SC(=O)N(CCCC(=O)Nc3ccccc3O)C2=O)cc1,1.2,-0.11
CC(N)CCCC(C)(C)O (stereo unspecified),-0.2&-1.5,0.73&-1.2
Cc1cc(C)cc(Oc2c(C)oc3c(CN4CCC(C)CC4)c(O)ccc3c2=O)c1,2.0,0.59
COc1cc(NS(=O)(=O)c2ccc3c(c2)CCN3C(=O)CCC(=O)O)c(C(=O)O)cc1OC,2.1,-0.93
Cc1noc(NS(=O)(=O)c2ccc(NC(=O)c3ccccc3)cc2)c1C,2.9,x
CC1CCCC(C)N1CCC(=O)NN (stereo unspecified),1.4,x
Cc1ccc(-c2cc(C(=O)N(C)Cc3c(C)nn(C)c3C)c3cc(Br)ccc3n2)cc1,-2.1,x
O=C(C[n+]1ccc(/C=N/O)cc1)Nc1ccc(C(=O)O)cc1,-1.3,-0.21
